# WNV protease inh: inhibitors of West Nile virus NS2B-NS3 protease | z-score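 (tested at a level between 10 and 100 µM)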 | WNV NS2B-NS3 protease, fluorogenic substrate Ex360/Em465; stronger effect = lower value | P06935 | 0.18% of 65,000 active;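 active = z-score at -3 or under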;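 note: score is relative to mean and spread of the compound wells of a plate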
# Target sequence (P06935 1371-1501 limits assumed): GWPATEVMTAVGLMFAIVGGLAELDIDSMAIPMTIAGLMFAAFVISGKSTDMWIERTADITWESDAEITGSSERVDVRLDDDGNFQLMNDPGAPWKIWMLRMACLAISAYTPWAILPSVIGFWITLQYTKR
# Target sequence (P06935 1502-1679 limits assumed): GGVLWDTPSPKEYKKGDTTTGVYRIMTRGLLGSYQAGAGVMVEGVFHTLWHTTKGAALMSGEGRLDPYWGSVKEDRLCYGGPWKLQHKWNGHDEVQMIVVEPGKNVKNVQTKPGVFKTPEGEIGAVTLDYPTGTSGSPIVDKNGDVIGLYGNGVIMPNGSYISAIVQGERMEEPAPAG
# Hsc70 ATP site: small molecules displacing fluorescent ligand from Hsc70 – biochemical, fluorescence polarization, primary screen (AID 568); displacement, % at 20 µM, or IC50 in µM where a hit was titrated; 83,000 tested, under 10 active; Hsc70 fluorescence polarization, probe displacement; higher % means a stronger effect; strong numbers were not always called active;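 active = displacement above 50% without optical interference and an IC50 on retest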;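 note: ATPase domain with a fluorescein-tagged ATP probe; 0% = vehicle and 100% = excess ADP; read after one hour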
# MT1-MMP reporter: inhibitors of MT1-MMP promoter transcription, cell-based, luciferase reporter, luminescence (AID 618); 0.62% of 87,000 active; calls from a first round at 10 µM; hits with a dose series show EC50 in µM; MT1-MMP promoter luciferase reporter cells, luminescence;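 active = over half of the reporter light lost at 10 µM or EC50 under 50 µM; inactive = the rest and hits that failed the dose series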;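 note: actives suppress MT1-MMP promoter-driven transcription so potencies describe inhibitors; HT1080 fibrosarcoma cells; overnight exposure; toxic or luciferase-blocking compounds were not removed from the actives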
# The depositor's hits bear a star; i = inactive; nt = not tested or not shown.
SMILES,WNV protease inh,Hsc70 ATP site,MT1-MMP reporter
Nc1c(C(=O)N2CCCCC2)sc(=S)n1-c1ccccc1,-0.58,4.2%,i
Cc1cc2n(c1)CCn1c(C)ccc1-2,1.58,31.8%,i
COc1ccc(OC)c(NC(=O)C2CCCN(S(=O)(=O)c3cccc4nsnc34)C2)c1 (stereo not given),-1.23,-6.6%,i
COc1ccccc1NS(=O)(=O)c1ccc(Cl)cc1,-0.95,-0.7%,i
Cc1nc(C(C)(C)O)n(-c2ccccc2)n1,-0.5,6.3%,i
COc1ccc(Cn2c(N)c(C#N)c3nc4ccccc4nc32)cc1OC,-0.09,-16.4%,i
COc1ccccc1Nc1nc(N)nc(CSc2nccc(C)n2)n1,0.27,-3.0%,i
Cc1nnc(SCC(=O)Nc2ccc(Cl)cn2)[nH]c1=O,nt,-4.6%,i
O=C(OCCN=C1NS(=O)(=O)c2ccccc21)c1cccnc1,-0.28,-0.6%,i
CCC(=O)NCCCOc1ccccc1,-0.69,-4.9%,i
Cc1csc2ncc(C(=O)NC(C)c3ccccc3)c(=O)n12 (stereo not given),1.65,-0.3%,i
COc1cccc(-n2nnnc2SCC(=O)Nc2cccc(C)n2)c1,-1.3,4.9%,i

# A draw from above in order of heavy-atom count, lowest first.
SMILES,WNV protease inh,Hsc70 ATP site,MT1-MMP reporter
Cc1nnc(SCC(=O)Nc2ccc(Cl)cn2)[nH]c1=O,nt,-4.6%,i
Cc1csc2ncc(C(=O)NC(C)c3ccccc3)c(=O)n12 (stereo not given),1.65,-0.3%,i
COc1cccc(-n2nnnc2SCC(=O)Nc2cccc(C)n2)c1,-1.3,4.9%,i

# (listing goes on)
SMILES,WNV protease inh,Hsc70 ATP site,MT1-MMP reporter
Cc1ccc(O)c(NC(=O)COc2cc(C)ccc2C)c1,-0.11,-0.4%,i
CCOC(=O)c1cc2sc(C)cc2n1CC(=O)N1CCOCC1,-0.23,2.1%,i
CCOC(=O)/C=C/C(=O)OCC(=O)Nc1ccc(Cl)cn1,nt,-2.7%,i
CCc1ccc(NC(=O)c2cnc3scc(C)n3c2=O)cc1,-0.06,0.4%,i
CCCCN(C)CCCNC(=O)Cn1c(=O)sc2ccccc21,-1.16,-4.1%,i
O=C(c1cccn2c(=O)c3ccc(Cl)cc3nc12)N1CCN(Cc2ccc3c(c2)OCO3)CC1,1.2,-4.3%,i
C=CCc1cccc2cc(C(=O)NC)c(=O)oc12,-0.03,-4.8%,i
CCC1CCCCN1C(=O)C1CC(c2cc(Cl)c(OC)cc2OC)=NO1 (stereo not given),-0.23,-1.3%,i
O=S(=O)(c1ccccc1C(F)(F)F)N1CCOCC1,0.03,-0.1%,i
CC(/C=C/c1ccco1)=N\NC(=O)c1cccnc1,nt,-0.4%,i
COCCN1Cc2c(sc(C)c2C)N(C(=O)c2ccccc2)C1,-0.65,-3.0%,i
Cc1cc(=O)[nH]c(=S)n1-c1ccccc1,0.65,3.6%,i
CCOc1ccccc1NC(=O)c1cccc2c1C(=O)N(CCOC)C2,0.29,-2.4%,i
COC(=O)C(NC(=O)c1ccccc1)(Nc1nc(C)cs1)C(F)(F)F (stereo not given),-0.46,2.2%,i
Cc1cccc(OCC(=O)Nc2ccc(S(=O)(=O)N3CCN(C)CC3)cc2)c1,nt,-2.6%,i
COc1ccc(OCC(=O)N/N=C2\CCc3ccccc32)cc1,nt,3.5%,i
COc1ccccc1NC(=O)C1=C(C)NC(=O)NC1c1ccccc1F (stereo not given),0.31,0.7%,i
O=C(Nc1nc(-c2nc3ccccc3s2)cs1)c1ccco1,-0.75,-9.4%,i
NC(=O)C1CCN(C(=O)CSc2ccccn2)CC1,2.25,1.9%,i
CSc1nc2sc3c(c2c(=O)[nH]1)CCCC3,-0.02,0.5%,i
COc1ccc(OC)c(S(=O)(=O)N(C)CC(=O)O)c1,-0.2,5.3%,i
Cc1ccccc1Cn1ccc(NC(=O)CCSc2nc(-c3ccco3)cc(C(F)(F)F)n2)n1,-0.14,-9.5%,i
CCN1CCN(CCC(=O)Nc2ccccc2OC)CC1,-0.48,-4.9%,i
Cc1nn(-c2ccccc2)c2[nH]c(=O)c(CNc3ccc(N4CCOCC4)cc3)cc12,0.99,-5.9%,i
CC12CNCC(C)(CN(C(c3ccccc3)c3ccccc3)C1)C2,nt,-0.8%,i
CCOc1ccc(N2C(=O)CC(Sc3nccc(C)n3)C2=O)cc1 (stereo not given),-0.86,5.8%,i
Cn1c(=O)c2c(nc(NCc3ccc4c(c3)OCO4)n2Cc2ccccc2Cl)n(C)c1=O,-0.09,-2.9%,i
CN(CC(=O)Nc1ccc(F)c(F)c1F)c1cnccn1,0.33,-1.0%,i
COCCn1c(SCc2nc3ccccc3c(=O)[nH]2)nnc1-c1ccncc1,nt,-3.7%,i
Cc1cccc(OCCn2c(NC(=O)c3ccco3)nc3ccccc32)c1,1.34,3.4%,i
O=C(C1CC1)N1CCc2cc(Br)cc(S(=O)(=O)NCCCN3CCCC3)c21,-0.69,1.1%,i
Cc1ccc(NCc2nnc(SCC(=O)NCc3ccco3)n2CC2CCCO2)c(C)c1 (stereo not given),-1.64,7.4%,i
O=C(c1ccc(OCC2CCCO2)cc1)N1CCN(c2ccccc2)CC1 (stereo not given),0.86,-5.8%,i
Cc1ccc(C)c(NC(=O)CSc2n[nH]c(-c3ccncc3)n2)c1,0.83,9.0%,i
CCOC(=O)C1C(=O)NC(SCC(N)=O)=C(C#N)C1c1ccccc1OCC (stereo not given),-0.65,-38.9%,i
CC1(C)CC(=O)C(C=NC(CCC(N)=O)C(=O)O)=C(O)C1 (stereo not given),-0.1,2.2%,i

# 2 of the compounds above, field by field.
Molecule: NC(=O)C1CCN(C(=O)CSc2ccccn2)CC1
  WNV protease inh: 2.25	Hsc70 ATP site: 1.9%	MT1-MMP reporter: i

Molecule: CCCCN(C)CCCNC(=O)Cn1c(=O)sc2ccccc21
  WNV protease inh: -1.16	Hsc70 ATP site: -4.1%	MT1-MMP reporter: i

# Remaining list, next part:
SMILES,WNV protease inh,Hsc70 ATP site,MT1-MMP reporter
O=C(Cn1c(=O)n(Cc2ccco2)c(=O)c2cc(Cl)ccc21)NCC1CCCO1 (stereo not given),-1.51,-5.6%,i
O=C(Nc1ccc(-c2nc3ccccc3o2)c(O)c1)c1cc(-n2cnnc2)ccc1Cl,1.22,-20.8%,i
CC(C)(C#N)C(C)(C)c1nn[nH]n1,0.85,0.6%,i
COc1cc(-c2nc(-c3ccc(C)nc3OC)no2)cc(OC)c1OC,0.33,-3.0%,i
N#CC1=C(N)Oc2cc(N)ccc2C1C1CCCCC1 (stereo not given),-0.09,-5.5%,i
O=C(Nc1cc(C(F)(F)F)ccc1-n1cncn1)c1ccc(Cl)cc1,nt,0.7%,i
CCn1c(SCC(=O)N2CCOCC2)nc(O)cc1=O,1.22,-2.3%,i
C=CCn1c(SCC(=O)NC2CCCCC2)nnc1-c1sc(N)nc1C,-0.54,5.8%,i
CN(C)c1nc(OCCNC(=O)COc2ccccc2Cl)nc(N(C)C)n1,nt,1.1%,i
O=C(c1cnc(N2CCN(c3ncccn3)CC2)c2ccccc12)N1CCN(c2ncccn2)CC1,-0.89,0.2%,i
COc1ccc(CC(=O)N2CCCC(C)C2)cc1 (stereo not given),nt,-3.6%,i
CCOc1cc(/C=C2\C(=O)N(c3nc(-c4ccc(Br)cc4)cs3)N=C2c2ccccc2)ccc1O,nt,-23.3%,i
O=C(CSc1nc2c(c(=O)n1-c1ccc(Br)cc1)SCC2)NCC1CCCO1 (stereo not given),nt,1.4%,i
Cc1ccc(NC(=O)C2CCN(S(=O)(=O)c3cccc4cccnc34)CC2)nc1,-1.05,-2.2%,i
CC(=O)Nc1ccc2nc(-c3cccs3)[nH]c2c1,-0.46,-5.0%,i
CC(C)C(OC(=O)c1cc2occc2n1C)C(=O)NCc1ccc2c(c1)OCO2 (stereo not given),0.03,1.9%,i
CCOc1ccc(NS(=O)(=O)c2cc(OC)ccc2OC)cc1,nt,1.6%,i
COc1ccc(-c2nc3nc(C)c(Cc4ccccc4)c(=O)n3[nH]2)cc1,0.18,2.4%,i
Cc1ccc(S(=O)(=O)NCCC(=O)N2CCN(Cc3ccccc3)CC2)cc1,-0.17,-5.0%,i
CC(=O)Nc1cccc2c1C(=O)N(c1ccc(C)cc1)C2=O,nt,1.1%,i
O=C(C1CCCN1S(=O)(=O)c1cccc2cccnc12)N1CCN(c2ccccc2)CC1 (stereo not given),-0.33,1.4%,i
CC(C(=O)NCc1cccs1)N1C(=O)c2ccccc2C1=O (stereo not given),nt,1.6%,i
O=C(Nc1ccc(Br)cc1F)C1CCCO1 (stereo not given),nt,3.7%,i
Cc1sc(-c2ccncc2)nc1OC(=O)c1cc(Cl)cc(Cl)c1,nt,0.3%,i

# Entries of single compounds from above. Order of screens: WNV protease inh | Hsc70 ATP site | MT1-MMP reporter
# Shown for Cc1ccc(S(=O)(=O)NCCC(=O)N2CCN(Cc3ccccc3)CC2)cc1 : -0.17 | -5.0% | i
# Shown for CC(C)C(OC(=O)c1cc2occc2n1C)C(=O)NCc1ccc2c(c1)OCO2 (stereo not given) : 0.03 | 1.9% | i
# Shown for CCOc1ccc(NS(=O)(=O)c2cc(OC)ccc2OC)cc1 : nt | 1.6% | i

# Continued.
SMILES,WNV protease inh,Hsc70 ATP site,MT1-MMP reporter
COc1cc(-c2nc(-c3ccc(Br)o3)no2)cc(OC)c1OC,-0.16,5.1%,i
CCc1nnc(NC(=O)CSc2nccn2-c2cccc(C)c2C)s1,0.32,-0.4%,i
O=C(CSc1nccc(=O)[nH]1)c1ccccc1Br,nt,-1.4%,i
COc1cccc(C2CC(c3ccc(Cl)cc3)n3nc(N)nc3N2)c1 (stereo not given),-0.13,6.3%,i
CCc1nnc(NC(=O)CSc2nnc(CSc3nc(C)cc(C)n3)n2C)s1,-1.09,-3.8%,i
N#Cc1c(N)oc(-c2cccs2)c1-c1cccs1,-0.65,-0.7%,i
CCOC(=O)c1cc2sccc2n1CC(=O)Nc1ccc(OC)cc1OC,0.87,0.1%,i
Cc1cc(NS(=O)(=O)c2ccc(-c3ccccc3)cc2)no1,0.86,0.1%,i
COC(=O)c1sccc1NC(=O)c1cccnc1,-0.18,-0.1%,i
CCc1cc(C(=O)O)c(NC(=O)C(c2ccccc2)c2ccccc2)s1,nt,-4.1%,i
O=C(O)CCC(=O)OC1CC2CCC1C2 (stereo not given),-0.52,-4.6%,i
Cc1c(NC(=O)COC(=O)Cc2ccc(Cl)cc2)c(=O)n(-c2ccccc2)n1C,1.17,0.2%,i
Cc1cccc(N(C(=O)Cn2nnc3ccccc32)C(C(=O)NCc2ccco2)c2ccncc2)c1C (stereo not given),0.97,-2.9%,i
Clc1ccccc1C1SCC2Nc3ccccc3CN21 (stereo not given),0.65,-5.1%,i
O=C1NC(c2ccco2)Nc2sc3c(c21)CCN(Cc1ccccc1)C3 (stereo not given),0.73,1.5%,i
COc1ccc(NC(=O)c2cc3n(n2)C(C(F)(F)F)CC(c2ccc4c(c2)OCO4)N3)cc1OC (stereo not given),-0.3,-7.1%,i
Cn1c(CNc2cccc(Cl)c2)nnc1SCC(=O)OC1CCCCC1,-0.52,0.1%,i
Cc1noc(C)c1CSCC(=O)N1CCN(c2ccc([N+](=O)[O-])cc2)CC1,nt,-1.4%,i
CCc1ccc(NC(=O)CN2C(=O)CSC2=O)cc1,nt,-0.4%,i
Nc1ccc(Nc2ccncc2[N+](=O)[O-])cc1,nt,-2.1%,i
COc1ccc(CC(CC(=O)O)C(=O)Nc2ccc(OC)cc2)cc1 (stereo not given),-0.66,0.0%,i
CCC(=O)NCc1nc2ccccc2n1Cc1ccccc1F,0.05,-4.9%,i
O=C(COc1ccccc1Cl)NCc1ccco1,0.08,3.8%,i
COc1ccc(N2CC(C(=O)OCC(=O)c3ccccc3)CC2=O)cc1 (stereo not given),nt,-0.2%,i
CC(=O)N1CCN(c2ccccc2NC(=O)COc2cc(C)ccc2C(C)C)CC1,0.16,-5.2%,i
CCCn1nnc(NC(=O)c2ccc(Br)cc2)n1,-1.46,5.1%,i
CCOc1ccc(C2CC(c3ccccc3)Nc3nc(N)nn32)cc1 (stereo not given),-0.2,0.2%,i
CCOC(=O)N1CCN(C(=O)CN2C(=O)COc3ccc(C(C)(C)C)cc32)CC1,-1.23,-3.6%,i
CCOC(=O)c1sc2ncn(C(CC)C(=O)OC)c(=O)c2c1C (stereo not given),-0.05,0.2%,i
O=C(NCc1cccnc1)NC(C(F)(F)F)C(F)(F)F,0.29,-6.6%,i
CCOC(=O)c1nc2ccccc2s1,-0.47,3.2%,i
Cc1ccc(CNc2oc(-c3ccco3)nc2S(=O)(=O)c2ccccc2)cc1,nt,3.7%,i
CCCCc1c(C)c2cc(C)ccc2[nH]c1=O,nt,0.5%,i
COc1ccccc1CNc1nc2nc(C)c(C)c(=O)n2[nH]1,-0.12,6.0%,i
O=C(CNS(=O)(=O)c1cccs1)N1CCCC1,-0.9,-9.9%,i
CCn1ccc2cc(OC)ccc2c1=S,nt,-1.7%,i
COc1cc(C(=O)OC(C)CN2CCOCC2)cc(OC)c1OC (stereo not given),-0.71,-6.0%,i
Cc1ccc(-c2ccc(CCC(=O)O)n2C(C)C)cc1,1.04,-2.2%,i
OC(COc1ccc(Cl)cc1)CN1CCCCC1 (stereo not given),-0.62,-5.4%,i
Cc1ccc(NC(=O)C2CCCNC2=O)nc1 (stereo not given),-0.57,2.0%,i
Cc1cc(C(=O)Nc2sc3c(c2C#N)CCC(C)C3)no1 (stereo not given),0.1,0.1%,i

# At a glance, part of the list above:
SMILES,WNV protease inh,Hsc70 ATP site,MT1-MMP reporter
COc1cc(C(=O)OC(C)CN2CCOCC2)cc(OC)c1OC (stereo not given),-0.71,-6.0%,i
Cc1ccc(-c2ccc(CCC(=O)O)n2C(C)C)cc1,1.04,-2.2%,i
